# Screening results deposited in PubChem by National Center for Advancing Translational Sciences (NCATS).
# LT uptake inh: qHTS Assay for Anthrax Lethal Toxin Internalization; actives 0.67% (n = 70,000); Cells, anthrax lethal toxin internalization, FRET ratio (460/530); Potency, µM (top dose mostly 40 µM), without a hit: at the highest dose activity change, negative = inhibition, usual class: inhibitors; active = well fitted falling ratio curve with the 530 nm signal flat; inconclusive = other ratio curves, or a change in one channel alone; inactive = flat curves in the ratio and both channels; the % refers to the ratio; note: % is set by controls: 0 for no effect and ±100 for the full control effect; nearly all actives have a fitted effect of over 50% in size; tested in ME-180 cells; beta-lactamase reporter
# Prx2 Sm inh: Schistosoma Mansoni Peroxiredoxins (Prx2); S. mansoni Prx2 activity coupled to TGR/GSH (TGR is thioredoxin glutathione reductase), NADPH fluorescence loss, qHTS; some inactives read as strong as hits; Potency, µM; actives 0.07% (n = 65,000); active means full or partial inhibition curve with a strong effect at the top dose; inconclusive means weaker partial or single-point curve; inactive means no accepted curve; note: series up to 57 µM; many of its hits are not listed in these tables
#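 qHTS, coupled TGR/Prx2 format; 15 min compound preincubation at RT; reaction started with H2O2 (2.5 mM aliquot); kinetic NADPH fluorescence decrease, ex 365/em 450 nm.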
# * marks the source's active call; other numbers are inactive results; ? = inconclusive; / = not tested or not shown; [ ] = another dose, or the depositor's remark. Potency is the fitted concentration of half-maximal effect. Not all compounds are listed, so the mix of outcomes need not match the whole.
SMILES,LT uptake inh,Prx2 Sm inh
COc1ccc(N2CCN(C(=O)CSc3nnc(-c4cc5ccccc5cc4O)n3C)CC2)cc1,?,>57
COc1ccc(NC(=O)CCc2nc(-c3ccc(C)cc3)no2)cc1Cl,?,>57
CCOC(=O)C1C(=O)OC2(CCCC2)C1C(=O)OCC (centres undefined),?,>57
CCOC(=O)/C(C#N)=C1/C=CN(C)C(C)=N1,-9.6%,/
Cn1c(N)c(C(=O)COC(=O)C2(c3cccc(F)c3)CCCC2)c(=O)n(C)c1=O,?,>57
COc1ccc2[nH]c3nc(SCc4nnc(-c5ccc(C)cc5)o4)nnc3c2c1,-7.5%,>57
Cc1ccc(OCc2nnc(SCc3cc(=O)[nH]c4ccccc34)o2)cc1,-2.4%,>57
CCc1nnc(NC(=O)CSc2nnc(-c3cc4ccccc4cc3O)n2CC)s1,-14.6%,>57
COCCN(Cc1cc2ccccc2[nH]c1=O)C(=O)c1ccccc1OC,-15.1%,>57
O=S(=O)(c1ccc(-c2nnc(SCc3ccccc3)o2)cc1)N1CCCC1,-9.5%,>57
COc1cc(C(=O)N(Cc2cc3cc(C)ccc3[nH]c2=O)CC2CCCO2)cc(OC)c1OC (centres undefined),?,>57
Cc1cc(C)c(C(N)=O)c(Nc2ccc3c(c2)OCCO3)n1,/,>57
CCn1c(CNC(=O)COC)nc2ccccc21,5.7%,>57
CCC(=O)NC(C)C(c1cccs1)N1CCOCC1 (centres undefined),-3.3%,>57
Oc1ccc(Cl)c(Cl)c1,0.7%,/
Cc1ccc(NC(=O)NC2(C(=O)NCc3ccco3)CCCCC2)cc1,-5.4%,>57
C=CCSc1n[nH]c(-c2ccc(OCCCC)cc2)n1,/,>57
CCOc1ccc(NS(=O)(=O)c2ccc3c(c2)CCN3C(=O)CCC(=O)O)cc1,-2.4%,>57
O=C1c2cccc3cccc(c23)N1CN1CCN(c2ccccn2)CC1,3.3%,>57
CCCCn1c(SCC(=O)NC(C)(C)C)nnc1-c1ccco1,?,>57

# Not a retest: entries from further up.
SMILES,LT uptake inh,Prx2 Sm inh
COc1ccc(N2CCN(C(=O)CSc3nnc(-c4cc5ccccc5cc4O)n3C)CC2)cc1,?,>57
COc1ccc(NC(=O)CCc2nc(-c3ccc(C)cc3)no2)cc1Cl,?,>57
CCOC(=O)C1C(=O)OC2(CCCC2)C1C(=O)OCC (centres undefined),?,>57
CCOC(=O)/C(C#N)=C1/C=CN(C)C(C)=N1,-9.6%,/
Cn1c(N)c(C(=O)COC(=O)C2(c3cccc(F)c3)CCCC2)c(=O)n(C)c1=O,?,>57
COc1ccc2[nH]c3nc(SCc4nnc(-c5ccc(C)cc5)o4)nnc3c2c1,-7.5%,>57
Cc1ccc(OCc2nnc(SCc3cc(=O)[nH]c4ccccc34)o2)cc1,-2.4%,>57

# Later entries
SMILES,LT uptake inh,Prx2 Sm inh
COC(=O)c1[nH]c2ccc(F)cc2c1NS(=O)(=O)c1ccc(OC)cc1OC,?,>57
N#Cc1nc(COc2cccc(Cl)c2)oc1N1CCN(c2ccccc2)CC1,?,>57
Cc1cccc(-n2c(N)c(C(=O)NCCN3CCOCC3)c3nc4ccccc4nc32)c1,?,>57
N#Cc1c2n(c3c(=O)n(Cc4ccccc4Cl)cnc13)CCCC2,-0.5%,>57
O=S(=O)(c1cccc2cccnc12)N1CCN(Cc2ccc3c(c2)OCO3)CC1,-4.3%,>57
C=CCN=C=S,0.1%,/
Cc1ccc(S(=O)(=O)N2CCN(C(=O)CN3CCOCC3)C2C(C)C)cc1 (centres undefined),-1.5%,>57
CC(=O)Nc1cccc(OCC(O)Cn2cnc3ccccc32)c1 (centres undefined),8.0%,>57
COC(=O)c1c(NC(=O)CSc2nnc(Cn3nnc4ccccc43)n2C)sc(C)c1C,-11.6%,>57
CCc1nnc(NC(=O)C2CCN(c3nccc(C)n3)CC2)s1,-10.2%,>57
CN1CC[C@@H]2CN3CCc4cccc(c43)[C@H]2C1,?,>57
Cc1ccc2nc(-c3cccc(S(=O)(=O)N(C)C)c3)cn2c1,1.3%,>57
CC(=O)c1ccc(S(=O)(=O)N(Cc2cc3cc4c(cc3[nH]c2=O)OCCO4)CC2CCCO2)cc1 (centres undefined),-7.5%,>57
CC(C)c1cc(C(=O)Nc2cccc(Cl)c2)no1,-16.6%,>57
O=C(c1csnn1)N1CCC2(CC1)CCN(c1ncccn1)CC2,3.6%,>57
Cc1cc(Br)ccc1N1C(=O)CC(=O)NC1=O,-9.2%,/
COC(=O)C1=C(C)N(C)C(C)=C(C(=O)OC)C1c1ccncc1,-2.8%,>57
Fc1ccccc1N1CCN(Cc2nc(-c3ccccc3)no2)CC1,/,>57
CCOC(=O)c1ccc(N2CSC3=C(C#N)C(c4cccs4)CC(=O)N3C2)cc1 (centres undefined),-19.2%,>57
C=CCC1(C)OC=Cc2nc3cc(Cl)c(Cl)cc3nc21 (centres undefined),?,/
CC(=O)Oc1ccccc1C(=O)Oc1ccccc1C(=O)O,?,>57
COCCn1c(-c2cc(OC)c(OC)c(OC)c2)nc2oc3ccccc3c(=O)c2c1=O,4.5%,>57
COc1cccc(Nc2nc(=O)[nH]nc2C)c1,-0.2%,>57
COc1ccc(N2CCC(CNC(=O)Nc3ccc(OC)cc3OC)C2)cc1 (centres undefined),-0.2%,>57
Cc1ccc(OCCCC(=O)Nc2ccc(S(=O)(=O)Nc3cc(C)on3)cc2)cc1,3.9%,>57
COc1ccc(-c2nnc(SCc3ccccc3F)o2)cc1OC,-2.4%,>57
COC(=O)c1[nH]c2cccc(OC)c2c1NC(=O)CCN1CCN(c2ccccc2F)CC1,-5.1%,>57
O=C(c1cc(-c2cccs2)on1)N1CCN(c2ccc(F)cc2)CC1,-4.4%,>57
Cc1nc(N2CCCC2C(=O)O)c2oc3ccccc3c2n1 (centres undefined),5.9%,>57
CC(=O)NCc1cn2c(C)csc2n1,6.6%,>57
CC(C)=C1C(=O)C(c2ccccc2)=C2CN3C(=O)N(CCc4ccccc4)C(=O)[C@]3(Cc3ccccc3)[C@H]21,?,>57
COc1ccc(CNCC(=O)Nc2cc(C)nn2-c2nc(C)cc(C)n2)cc1OC,6.7%,>57
Cc1ccccc1OCC(=O)NCCN1CCCC1,-15.9%,>57
C[C@@]1(O)CCOC(=O)C1,6.0%[3.58 µM],>57
CCN(CCNS(=O)(=O)c1ccc2[nH]c(=O)sc2c1)c1ccccc1,-20.0%,>57
O=C(CSc1nc2ccccc2o1)NCCOc1ccccc1,?,>57
Cc1ccc(N2CCN(S(=O)(=O)c3ccc(F)cc3)CC2)c(C)c1,?,>57
Cc1cccc(OCC(O)Cn2c(-n3nc(C)cc3C)nc3c2c(=O)[nH]c(=O)n3C)c1 (centres undefined),-16.9%,>57
Cc1ccc(S(=O)(=O)c2c(N)n(/N=C/c3ccco3)c3nc4ccccc4nc23)cc1C,-7.8%,>57
Cc1c(C(=O)N2CCN(c3ccccc3)CC2)sc2ncnc(N3CCN(c4ccccc4)CC3)c12,0.4%,>57
O=C(c1cc2c(=O)n3ccccc3nc2s1)N1CCOCC1,7.2%,>57
O=C(Nc1cccnc1)c1c(O)c2cccc3c2n(c1=O)CC3,-7.6%,>57
c1cncc(-c2nccc(-n3ccnc3)n2)c1,3.6%,>57
CCC(C)(C)NC(=O)C(c1ccc(F)cc1)N(Cc1ccco1)C(=O)CCC(=O)Nc1ccccn1 (centres undefined),?,>57
Cc1c(NC(=O)C2CCCCN2S(=O)(=O)c2ccc(Cl)cc2)c(=O)n(-c2ccccc2)n1C (centres undefined),14.6%,>57
Cn1c(=O)c2c(SCC(=O)N3CCN(c4ccccc4)CC3)nc(C3CC3)nc2n(C)c1=O,-13.7%,>57
CCn1c(COc2ccc(Cl)cc2)nnc1SCc1ccc(C#N)cc1,-0.9%,>57
CCn1c(=O)cc(NC2=NCC(C)CN2c2cccc(Cl)c2)n(C)c1=O (centres undefined),-13.2%,>57
Cc1oc(/N=C/c2ccccc2O)c(C#N)c1C,-8.8%,>57
CCn1c(=O)cc(SCC(=O)N2CCC(C)CC2)c2ccccc21,26.3%,>57
CC(=O)c1c(C)[nH]c(C(=O)OCC(=O)Nc2ncc(Cl)c(C)c2Cl)c1C,-4.4%,>57
COc1cc2cc(CN(CCN3CCCC3)C(=O)Nc3ccc(F)cc3)c(=O)[nH]c2cc1OC,-0.4%,>57
COCCn1c(=O)c(-c2cc(F)cc(F)c2)nc2cnc(N(C)C)nc21,?,>57
CN1CCN(c2cc(-c3ccc(N(C)C)cc3)ncn2)CC1,6.8%,>57
Cc1ccc(Cn2nnc3c(=O)n(CC(=O)N4CCN(c5ccccc5)CC4)cnc32)cc1,-19.0%,>57
O=C(Nc1ccc2c(c1)OCCO2)C1CCCN1S(=O)(=O)c1ccc(Cl)cc1 (centres undefined),-4.4%,>57
NC(=O)CSc1nnc(-c2ccncc2)n1CCc1ccccc1,-2.4%,>57
O=C(NCc1ccccn1)C1CCN(S(=O)(=O)c2cnc[nH]2)CC1,-5.4%,>57
COC(=O)C1=C(N)Oc2cc(C)n(CCCn3ccnc3)c(=O)c2C1c1cccc(Cl)c1 (centres undefined),?,>57
c1ccc(-c2nnc3sc(-c4cc5ccccc5o4)nn23)cc1,-13.1%,>57
# Remaining list, next part:
SMILES,LT uptake inh,Prx2 Sm inh
CCOC(=O)CSc1ccc2nnc(-c3ccccc3)n2n1,5.8%,>57
CCOC(=O)C(NC(=O)c1ccc(F)cc1)(Nc1nnc(C)s1)C(F)(F)F (centres undefined),21.8%,>57
Cc1ccc(C(C)C)c(OCC(=O)Nc2ccc(N3CCN(S(C)(=O)=O)CC3)cc2)c1,-10.9%,>57
ClC1=C(Cl)C2(Cl)C3C4CC(C5OC45)C3C1(Cl)C2(Cl)Cl (centres undefined),?,/
CCC(=O)Nc1ccc(Br)c(Cl)c1,-21.7%,>57
COC(=O)c1ccc(NC(=O)CCn2c(=O)oc3ccccc32)cc1,-2.2%,>57
Cc1cccc(C)c1NC(=O)c1cc(S(=O)(=O)N2CCOCC2)ccc1F,-15.6%,>57
COc1ccc(OCCN2CCN(C3CC(=O)N(CCC(C)C)C3=O)CC2)cc1 (centres undefined),11.5%,>57
Cc1c(C#N)c2ncnc(-c3ccccc3)c2n1-c1ccccc1,?,>57
COc1cccc(NC(=O)N2CCCC(C(=O)Nc3ccccc3OC)C2)c1 (centres undefined),-2.6%,>57
O=C(OCC1COc2ccccc2O1)c1ccccc1F (centres undefined),7.8%,>57
CC(C)Oc1ccc(NC(=O)Oc2ccccc2)cc1,?,/
Cc1cccc(-c2nnc(SCC#N)n2-c2cccc(Cl)c2)c1,11.2%,>57
COC(=O)c1[nH]c2cccc(OC)c2c1NC(=O)CCN1CCN(c2cccc(Cl)c2)CC1,/,>57
Cc1ccc(C23CC4CC(CC(NC(=O)N5CCN(C)CC5)(C4)C2)C3)cc1,-8.1%,>57
COc1ccc(OCc2nnc(SCC(=O)NCc3ccco3)o2)cc1,-1.3%,>57
CC(C)CNc1nc(Oc2ccc(=O)n(-c3ccccc3)n2)nc(N2CCOCC2)n1,25.2%,>57
Cc1ccc(-c2nc(CS(=O)CC(=O)NCCC(C)C)c(C)o2)cc1 (centres undefined),-2.8%,>57
CC(C)(C)OC(=O)N[C@@H](Cc1ccccc1)c1nnc(S(=O)(=O)Cc2cccc(F)c2)o1,10µM*,>57
O=C(c1cccs1)n1cc(C(=S)N2CCOCC2)c2ccccc21,?,>57
CC(Cc1ccccc1)C(=O)N(C)Cc1ccccc1 (centres undefined),-2.0%,/
N#Cc1c(-c2ccccc2)nc(N2CCOCC2)[nH]c1=O,6.2%,>57
CCCc1nc(NC(C)=O)c(C#N)c(-c2ccco2)c1CC,3.1%,>57
CC1C=Cc2ccccc2N1C(=O)c1ccccc1 (centres undefined),-16.2%,>57
COc1ccccc1CNc1ncncc1-c1ccccc1OC,-24.2%,>57
O=C(NCCC1=CCCCC1)c1ccc(Cl)c(S(=O)(=O)N2CCOCC2)c1,-3.3%,>57
O=C(OCC(=O)c1cccs1)C1=COCCO1,-9.6%,>57
CCC(C)O (centres undefined),-3.7%,/
CN(C)c1ccc(C=Nc2ccccc2C(N)=O)cc1,-11.2%,>57
CC(C)(C)NC(=O)CSc1nnc(CN2CCCCCC2=O)n1-c1ccccn1,10.0%,>57
Cc1c(C(=O)NCc2cccnc2)oc2ccc(S(=O)(=O)N3CCCCCC3)cc12,-7.5%,>57
OC1CC(c2ccco2)NC2(CCCCC2)C1 (centres undefined),?,>57
N#Cc1ccc(NC(=O)COC(=O)C2=COCCO2)cc1,-3.4%,>57
CN1CCN(CC(=O)N(C)c2nc(-c3ccccc3)cs2)CC1,10.0%,>57
CSc1nnc(Cn2c(=O)sc3ccccc32)n1-c1cccc(Cl)c1,-15.7%,>57
Cc1cc(NC(=O)CSc2nc(C3CC3)nc3sc4c(c23)CCC(C)C4)no1 (centres undefined),-14.7%,>57
CC(C)NC(=O)C1CCCN(S(C)(=O)=O)C1 (centres undefined),/,>57
COc1ccc(-n2c(=O)c(CCc3ccccc3)nc3cnc(N(C)C)nc32)cc1,?,>57
C=CCn1c(SCC(=O)Nc2ccc3c(c2)OCO3)nnc1-c1cc(Br)ccc1O,?,>57

# Record cards, from the list above. Screens in order: LT uptake inh, Prx2 Sm inh
# OC1CC(c2ccco2)NC2(CCCCC2)C1 (centres undefined) is listed with ?, >57
# COc1ccc2[nH]c3nc(SCc4nnc(-c5ccc(C)cc5)o4)nnc3c2c1 is listed with -7.5%, >57
